Tg IFNy HTS = T. gondii growth inhibition with IFN-gamma, primary screen, cell-based; Toxoplasma gondii growth in IFN-gamma-treated host cells; active compounds read low; reference of the scale not given here; activity change, negative = inhibition, %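 (about 20 µM by stock and volumes)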; 69,000 tested, 3.8% active;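 active = below -70%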;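 note: host cells are HeLa cells infected with Toxoplasma gondii; parasite growth read as luciferase light; one replicate is shown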
An asterisk follows results filed as active; i = inactive. Not all compounds are listed; the hit share may differ from the screen's.

smiles	Tg IFNy HTS
COc1ccc([C@@H]2C/C=C\C[C@@H](c3cccc(Cl)c3)NC(=O)[C@@H](c3ccccc3)CC(=O)N2)c(OC)c1	74.4
C[C@H](NC(=O)C[C@H]1CC[C@H]2[C@@H](COC[C@H](O)CN2C(=O)Nc2cccc(Cl)c2)O1)c1ccccc1	-47.5
CCc1nc(OCC(=O)Nc2cccc(OC)c2)c2ccccc2n1	21.5
Cc1cccn2c(CNC(=O)c3cc(COc4cccc(F)c4)[nH]n3)cnc12	-0.6
CCN1C(=O)CCc2cc(NS(=O)(=O)Cc3ccc(Cl)cc3)ccc21	-41.0
COc1ccccc1OC(=O)C(C)c1ccc(CC(C)C)cc1 (stereo unspecified)	11.2
COc1ccc(-c2nc(C)c(CCNC(=O)c3ccc(Cl)cc3)s2)cc1OC	81.3
COCc1nnc(NC(=O)CCc2c(C)[nH]c3ccccc3c2=O)s1	17.1
O=S(=O)(O)c1ccc(O)cc1	10.1
O=C1c2ccccc2-n2c1nc1ccccc1c2=O	-56.4
CN(C(=O)c1cc2cccnc2n(Cc2ccc(F)cc2)c1=O)C1CCCCC1	58.6
COc1ccc(C[C@H]2CN(C(C)=O)CC[C@H]2OCC2CC2)cc1	-5.8
Cc1ccc2c(c1)NC1(CCN(S(=O)(=O)c3ccc(Cl)c(Cl)c3)CC1)c1cccn1-2	34.8
CCN1C(=O)[C@H]2CN(C(=O)N(C)C)C[C@@H]2C12CCN(S(=O)(=O)c1ccccc1)CC2	0.5
Cc1c(-c2csc(-c3ccc(Cl)cc3)n2)sc2nc(C(F)(F)F)nn12	-13.7
O=C(Cc1ccccc1)c1cc2c(cc1Br)OCCO2	323.9
C[C@H](CO)N1C[C@H](C)[C@@H](CN(C)S(=O)(=O)c2cn(C)cn2)OCCCC[C@H](C)Oc2ccc(NC(=O)Nc3cccc4ccccc34)cc2C1=O	i
CN1C(=O)C(c2ccccc2)CC12CCN(Cc1nccs1)CC2 (stereo unspecified)	7.7
COc1ccc(OC)c(S(=O)(=O)NCCc2sc(-c3ccc(C)cc3)nc2C)c1	-37.8
CCOc1ccc(-c2cc(C(=O)Nc3n[nH]c(-c4cccs4)c3C)[nH]n2)cc1	-22.2
Cn1nc(-c2ccccc2)c2c1NC(=O)CC2c1ccc2nonc2c1 (stereo unspecified)	2.7
Cn1ncc2c(N3CCC(OCc4cccnc4)CC3)nc(C(C)(C)C)nc21	4.7
Cc1ccc(S(=O)(=O)Nc2ccc3[nH]c(=O)[nH]c3c2)cc1C	18.6
CCc1ccc(-n2nnc(C(=O)N3CCC(N4CCCCC4)CC3)c2-c2ccncc2)cc1	-9.0
Cc1nc2nc(NC(=O)CCc3ccccc3)[nH]n2c(=O)c1C	-63.1
COc1ccccc1Oc1ncccc1CNC(=O)CN1CCC(C)=N1	-6.2
COc1ccc(S(=O)(=O)N2CCN(C(=O)c3noc(C)c3CN(C)C)CC2)cc1	-10.9
Cc1cc(C)n(CCNC(=O)Cn2nc(C)c(C)c2C)n1	4.6
Cc1cccc(CNC(=O)c2sc(CC(=O)N3CCSCC3)nc2C)c1	-35.0
CC(C)C(C)N(Cc1ccco1)C(=O)c1cnn2ccccc12 (stereo unspecified)	-7.1
Cc1ccc(S(=O)(=O)NCCCNC(=O)c2cnccn2)cc1	-54.6
O=S(=O)(c1cn[nH]c1)N1CCC(c2cncc(-c3cccc(F)c3)n2)CC1	-28.3
COc1ccc(Cl)cc1C(=O)Nc1cccc2nonc12	25.5
Clc1ccc(-c2noc3c2CN(CCn2cc(Cl)cn2)CC3)cc1	-72.1*
O=S(=O)(c1ccc(F)cc1)N1CC[C@H](c2ccccc2)[C@H]2NCCCC[C@H]21	-19.5
Cn1c(=O)n(C)c2cc(CCC(=O)O)ccc21	-26.3
Cc1ncc(C)c(N2CC[C@@H](N3CCN(CCc4ccccc4)CC3)[C@H](O)C2)n1	-10.4
Cc1nn(-c2ccccc2)nc1-c1nnc(-c2ccc(C(F)(F)F)cc2)o1	-10.4
CCCN1CN=c2s/c(=C\C(=O)OC)c(=O)n2C1	2.6
Cc1occc1C(=O)N1CC[C@H]2[C@@H]1CCN2CC1CCOCC1	126.1
C[C@@H]1CN([C@H](C)CO)C(=O)c2cc(NC(=O)Nc3cccc4ccccc34)ccc2O[C@@H](C)CCCCO[C@H]1CN(C)Cc1ccc(C(F)(F)F)cc1	64.4
CCC1CCCCN1C(=O)c1cc2cccnc2n(Cc2ccc(F)cc2)c1=O (stereo unspecified)	2.6
CNC[C@@H]1Oc2c(N)cccc2C(=O)N([C@@H](C)CO)C[C@@H]1C	9.6
CCc1ccccc1S(=O)(=O)NCC(c1cccnc1)c1c[nH]c2ccccc12 (stereo unspecified)	-51.2
CCC(C(=O)NCc1cc(Cl)c2c(c1)OCCCO2)n1nc(C)cc1C (stereo unspecified)	9.9
O=C1c2ccccc2C(=Cc2ccc(C(F)(F)F)cc2)c2ccccc21	99.4
Cc1cccnc1CN1CCN(Cc2cccn2-c2nccs2)CC1	18.5
Cc1ccc(C)c(C(NC(=O)Cc2c(C)noc2C)c2ccncc2)c1 (stereo unspecified)	8.7
COc1cc(C(=O)N2CCN3C(=O)CN(C)C(=O)C3C2)c2ccccc2n1 (stereo unspecified)	-4.7
CC(C)N1CCNC(=O)C1CC(=O)NCc1cc2cc(Cl)ccc2[nH]1 (stereo unspecified)	9.2

Later entries.
smiles	Tg IFNy HTS
Cc1noc(C)c1S(=O)(=O)N(C)C[C@@H]1Oc2c(NC(=O)c3ccc(-c4nccs4)cc3)cccc2C(=O)N([C@@H](C)CO)C[C@@H]1C	-43.5
CCn1cnnc1CN(C)C1CCN(Cc2ccccc2)CC1	3.3
CCN(CC)CCNC(=O)c1ccccc1I	12.3
CN1CCN(c2cc(C(=O)NC(C)(C)CN3CCCCC3)ccn2)CC1	3.8
CC(Cn1cccn1)NC(=O)CCc1nc(-c2ccccc2F)no1 (stereo unspecified)	-5.1
CCc1nn(C)c(Cl)c1CN(C)Cc1c(C)noc1C	1.5
CCOC(=O)c1c(NCc2ccc(C)cc2)c2ccc(Cl)cc2[nH]c1=O	-5.1
COc1cccc(CN2CC[C@]3(CCC[C@@H]3C(=O)N3CCOCC3)C2)n1	-44.5
CCN(C)C1COC2(CCN(Cc3csc(C)n3)CC2)C1 (stereo unspecified)	-6.7
C=CCN1C(=O)C2(CCOCC2)c2cc(NC(=O)c3ccc[nH]3)ccc21	6.8
C(=C\c1csc(CN2CCNCC2)c1)/c1ccccc1	2.7
CCN(CC)C(=O)CC1CC2(CCN(S(=O)(=O)C3CC3)CC2)c2ccccc21 (stereo unspecified)	69.7
COc1ccc(NC(=O)C2CCOCC2)cc1NC(=O)c1ccccc1	80.4
COc1ccc2c(c1)CC(NCC(=O)NC(C)C)CC2 (stereo unspecified)	19.2
CCN(CC)Cc1cn2c(n1)CN(C1CCOC1)CC2 (stereo unspecified)	8.5
COC(=O)NC(C)CNc1nccc(-c2cn(C(C)C)nc2-c2cc(Cl)cc(NS(C)(=O)=O)c2F)n1 (stereo unspecified)	-70.5*
CC(=O)N1CCCn2c(nc(CNC(=O)c3ccco3)cc2=O)C1	81.1
Cc1cc(C(C)(C)CC(C)(C)C)ccc1OCCOCC[N+](C)(C)Cc1ccccc1	-84.7*
CC1(C)CC(N2CCCCC2)=CC(=S)S1	85.6
COc1cccc(-c2nnc(SCC(=O)O)n2-c2ccccc2C)c1	70.6

An excerpt of these results, with each value named:
structure: COc1ccc2c(c1)CC(NCC(=O)NC(C)C)CC2 (stereo unspecified)
  Tg IFNy HTS: 19.2

structure: CCN(CC)Cc1cn2c(n1)CN(C1CCOC1)CC2 (stereo unspecified)
  Tg IFNy HTS: 8.5

structure: COC(=O)NC(C)CNc1nccc(-c2cn(C(C)C)nc2-c2cc(Cl)cc(NS(C)(=O)=O)c2F)n1 (stereo unspecified)
  Tg IFNy HTS: -70.5*

Additional compounds follow.
smiles	Tg IFNy HTS
COc1ccc(CNCC(=O)Nc2cccc(C)c2C)c(OC)c1	0.9
COc1ccc(CNC(=O)C[C@@H]2C=C[C@H](NC(=O)c3cccc(F)c3)[C@@H](CO)O2)cc1	-5.4
CCc1cnc(N2CCC(Cc3nnc(SC)n3C)CC2)nc1	2.2
CN1c2ccc(-c3ccccc3)cc2[C@@H]2[C@@H](CCN2C(=O)NC2CCCCC2)[C@H]1CO	-67.0
Cc1cc(C)nc(N2CCCN(C(=O)N3CCOCC3)CC2)n1	3.1
CC(=O)Nc1ccc(Cl)c(C(=O)NCC(c2cccs2)N(C)C)c1 (stereo unspecified)	-3.8
COC(=O)c1c(C)c2c(c(C)c1O)OC(=O)c1c(C)c(Cl)c(O)c(Cl)c1O2	-39.8
O=C(c1ccoc1)N1CCC2(CC1)CN(c1cccnc1)C(=O)CO2	-8.1
O=C(NCCc1csc(-c2ccc(Cl)cc2)n1)c1ccco1	-80.6*
CN1[C@@H]2CN(C(=O)Nc3cc(F)ccc3F)c3ccccc3[C@@H]2[C@@H]1CO	12.3
CC(=O)Oc1cc2oc(=O)cc(C)c2cc1OC(C)=O	17.4
O=C(C[C@H]1C=C[C@@H](NS(=O)(=O)c2ccccc2)[C@H](CO)O1)NCCN1CCCCC1	9.1
O=C1Cc2cc(N3CC(C(=O)O)CC3=O)ccc2N1 (stereo unspecified)	0.8
CN(C)C[C@@]12COC[C@@H]1CN(C(=O)COc1ccccc1)C2	-5.4
Cc1cc(C)c(C(=O)N(CC#Cc2ccccc2)C2CCCC2)c(=O)[nH]1	-34.1
Cc1cccc(C(=O)c2cccc(C)c2)c1	16.2
O=C(CSc1ncn(-c2ccccc2)n1)Nc1cccc2ccccc12	-15.6
CC(=O)NC1CCN(Cc2nc(-c3cccc(Oc4ccccc4)c3)oc2C)C1 (stereo unspecified)	0.3
CNC(=O)[C@H]1C[C@@H]2OCC[C@@H]2N(Cc2ccco2)C1	104.4
CSc1cc(-c2ccc(Oc3ccccc3)cc2)[nH]n1	79.1
Cc1ncc(CC(=O)N2CCC(c3[nH]ncc3-c3ccccc3C)CC2)c(=O)[nH]1	0.2
CN1c2ccc(-c3ccc(F)cc3)cc2[C@H]2[C@H](CCN2C(=O)Cc2cccnc2)[C@H]1CO	-3.4
CN1CCN2C[C@@H](NC(=O)c3c[nH]c4c(F)cccc4c3=O)C[C@H]2C1	-3.1
Brc1ccc2nc(-n3nc4ccccc4n3)nc(-c3ccccc3)c2c1	-15.7
Cc1nc(N2CCCC2)nc2c1CCN(C(=O)c1ccco1)CC2	-5.6
O=C(c1ccoc1)N1CCC2OCCCC2(COc2cccnc2)C1 (stereo unspecified)	112.1
O=C(C[C@@H]1CC[C@@H]2[C@H](COC[C@@H](O)CN2CC2CCOCC2)O1)NCc1ccc(Cl)cc1	3.7
Cc1oc(C2CCN(C(=O)Nc3ccccc3)CC2)nc1C(=O)N(C)C	24.0
Cc1ccc(C)c(C(=O)N2CCn3nc(C(=O)NCCO)cc3C2)c1	37.7
COC1CC2(CCN(C(=O)c3cnccn3)CC2)C1	130.4
COc1ccc(S(=O)(=O)Nc2ccc3c(c2)C(=O)N([C@@H](C)CO)C[C@@H](C)[C@@H](CN(C)S(=O)(=O)c2ccc(Cl)cc2)OCCCC[C@@H](C)O3)cc1	-136.7*
CO[C@@H]1CN(C)C(=O)c2ccc(NC(=O)c3cc(C)on3)cc2OC[C@@H](C)NC[C@@H]1C	-59.9
O=C(C[C@H]1CC[C@H]2[C@@H](COC[C@H](O)CN2Cc2ccc(Oc3ccccc3)cc2)O1)N1CCN(c2ccccc2)CC1	-56.2
COc1cccc(-c2nc(Cn3ccn4nc(-c5ccc6c(c5)OCO6)cc4c3=O)c(C)o2)c1OC	0.6
O=C(CNS(=O)(=O)c1cccs1)NC1CCCOC1 (stereo unspecified)	-44.3
O=C(C[C@@H]1CC[C@@H]2[C@H](COC[C@@H](O)CN2C(=O)c2ccc(F)cc2)O1)N1CCCCC1	44.2
Cc1ccc(CN2CCc3nc(-c4cccnc4)[nH]c(=O)c3C2)o1	0.3
CCC(C)NC(=O)c1cncc(N(C)S(=O)(=O)c2ccc(C)cc2)c1 (stereo unspecified)	25.7
O=C1NCC2(CCCN(C(=O)c3ccccc3N3CCOCC3)CC2)O1 (stereo unspecified)	5.8
CCCN1C(=O)CCc2cc(NC(=O)COc3ccc(F)cc3)ccc21	8.4

4 entries from above, field by field.
O=C(C[C@H]1CC[C@H]2[C@@H](COC[C@H](O)CN2Cc2ccc(Oc3ccccc3)cc2)O1)N1CCN(c2ccccc2)CC1
  Tg IFNy HTS: -56.2
COc1ccc(S(=O)(=O)Nc2ccc3c(c2)C(=O)N([C@@H](C)CO)C[C@@H](C)[C@@H](CN(C)S(=O)(=O)c2ccc(Cl)cc2)OCCCC[C@@H](C)O3)cc1
  Tg IFNy HTS: -136.7*
CO[C@@H]1CN(C)C(=O)c2ccc(NC(=O)c3cc(C)on3)cc2OC[C@@H](C)NC[C@@H]1C
  Tg IFNy HTS: -59.9
COc1cccc(-c2nc(Cn3ccn4nc(-c5ccc6c(c5)OCO6)cc4c3=O)c(C)o2)c1OC
  Tg IFNy HTS: 0.6

Additional entries follow.
smiles	Tg IFNy HTS
O=C(CCSc1ccc2c(c1)OCCO2)NCCN1CCCOC1=O	8.3
O=C(c1cncc(N2CC(c3cccnc3)C2)n1)N1CCOCC1	-6.6
COCC1CCC2(CCN(C(=O)c3cnn(C)c3)CC2)N1CC1CC1 (stereo unspecified)	-2.2
CC(C)C(=O)C1Cc2nc(-c3ccsc3)sc2N1C(C)C (stereo unspecified)	1.4
CCOC(=O)[C@@]12CC=CCN(C(=O)c3sccc3S(=O)(=O)C(C)(C)C)[C@@H]1CCC2	3.5
O=C(Cn1c(=O)cc(C(=O)N2CCCCC2)c2ccccc21)NC1CCCCC1	1.0

Screens (PubChem)
